Cruzain noTriton – blocks cruzain activity in detergent-free assay; P25779; purified cruzain, Z-FR-AMC fluorescence, no detergent; Potency, µM, inactives show max response, negative = inhibition, hits mostly inhibitors; actives 2.3% (n = 200,000); AID 1476; active = well fitted curve in the direction sought with a large enough effect; inconclusive = small, poorly fitted or top-dose-only effect, or another doubt; inactive = no such curve, though single readings can be large; an effect the other way counts as inactive or inconclusive;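 note: plate controls were enzyme without inhibitor for no effect and buffer without enzyme for full effect; nearly all actives have a fitted effect of over 40% in size; top concentration of the series not given in the record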
Target sequence (P25779 123-467 limits assumed): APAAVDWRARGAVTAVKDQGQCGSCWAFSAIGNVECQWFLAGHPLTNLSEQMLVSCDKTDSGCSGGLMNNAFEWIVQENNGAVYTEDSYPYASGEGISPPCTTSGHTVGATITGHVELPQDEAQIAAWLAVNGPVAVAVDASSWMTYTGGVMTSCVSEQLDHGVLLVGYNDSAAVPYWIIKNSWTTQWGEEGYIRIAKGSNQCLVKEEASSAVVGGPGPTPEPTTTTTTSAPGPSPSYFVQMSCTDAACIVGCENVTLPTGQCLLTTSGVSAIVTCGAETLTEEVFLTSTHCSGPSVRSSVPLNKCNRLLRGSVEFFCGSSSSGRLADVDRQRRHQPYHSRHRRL
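Purified cruzain at 1.5 nM, pre-incubated 15 min with compound at room temperature in 100 mM sodium acetate pH 5.5, 5 mM DTT, 0.00005% Triton X-100. Reaction started with 2 uM Z-FR-AMC; AMC fluorescence increase over 60 s gives rate.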
Marburg entry inh – blocks Marburg virus binding to or entry into cells; Marburg virus pseudotyped entry inhibition, cell reporter; control for the full effect not named in the record; about a third of the inactives were read at about 46 µM; Potency, µM (titrated, usually from 37.8 µM), without a hit: top-dose activity change, negative = inhibition, actives largely listed as inhibitors; actives 1.8% (n = 300,000); active = well fitted inhibition curve with a large enough effect; inconclusive = small, poorly fitted or top-dose-only effect, or effect the other way; inactive = flat fitted curve, though single readings scatter; tested in HEK293 cells; about a fifth of its hits are not listed in these tables; note: % is set by controls: 0 for no effect and ±100 for the full control effect; luciferase read-out
Lassa entry inh – inhibitors of Lassa virus binding or cell entry | Potency, µM (top dose mostly 37.9 µM), inactives show at the top dose activity change, negative = inhibition, hits mostly inhibitors | actives 1.2% (n = 300,000) | Lassa virus pseudotype entry inhibition, cell reporter; control for the full effect not named in the record; active means well fitted inhibition curve with a large enough effect; inconclusive means small, poorly fitted or top-dose-only effect, or effect the other way; inactive means flat fitted curve, though single readings scatter; tested in HEK293 cells; note: % is set by controls: 0 for no effect and ±100 for the full control effect; nearly all actives have a fitted effect of over 50% in size; luciferase read-out
StopGo reporter – lowers the luciferase signal of an FMDV 2A StopGo reporter. actives 1.2% (n = 410,000). human cells with a luciferase reporter of 2A StopGo recoding; control for the full effect not named in the record. Potency, µM (highest dose often 57.9 µM), inactives show at the highest dose signal change, negative = less light; active = well fitted falling curve with a large enough effect; inconclusive = small, poorly fitted or top-dose-only effect; inactive = no such curve, though single readings can be large or run the other way; tested in HEK293T cells; note: % is set by controls: 0 for no effect and ±100 for the full control effect; nearly all actives have a fitted effect of over 45% in size; luciferase light after 4 h
SARS PLpro yeast – blocks SARS-CoV papain-like protease in a yeast assay; actives 0.19% (n = 330,000); Potency, µM (doses to about 32.9 µM), inactives show at the highest dose activity, positive = growth rescue; AID 485353; S. cerevisiae expressing SARS-CoV PLpro, growth rescue; control for the full effect not named in the record; note: 0% is about no effect; nearly all actives have a fitted effect of over 55% in size; growth read by luminescence after 48 h
Cruzain inh Det – blocks cruzain activity in presence of Triton detergent; P25779; purified cruzain, Z-FR-AMC fluorescence, 0.01% Triton; Potency, µM, for inactives: max response, negative = inhibition, usual class: inhibitors; actives 0.43% (n = 200,000); AID 1478; active = well fitted curve in the direction sought with a large enough effect; inconclusive = small, poorly fitted or top-dose-only effect, or another doubt; inactive = no such curve, though single readings can be large; an effect the other way counts as inactive or inconclusive;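 note: plate controls were neutral wells for no effect and buffer without enzyme for full effect; nearly all actives have a fitted effect of over 40% in size; top concentration of the series not given in the record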
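Cruzain (1.5 nM) preincubated 15 min at RT with compound in 100 mM sodium acetate pH 5.5, 5 mM DTT, 0.01% Triton X-100. Reaction started with 2 uM Z-FR-AMC; AMC fluorescence (ex 360/em 450 nm) change over 60 s gave rate.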
RE007 growth inh – less growth of the S. pombe RE007 Vpr strain | AID 651644 | actives 0.21% (n = 360,000) | S. pombe RE007 Vpr strain, BacTiter-Glo ATP luminescence, 24 h; control for the full effect not named in the record | Potency, µM (titrated, usually from 92.2 µM), inactives show at the top dose activity change, negative = less growth; active = well fitted falling curve with a large enough effect; inconclusive = small, poorly fitted or top-dose-only effect; inactive = no such curve, though single readings can be large or run the other way;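 note: % is set by controls: 0 for no effect and ±100 for the full control effect; nearly all actives have a fitted effect of over 50% in size; the assay follows cell death caused by Vpr and the record does not say whether a fall means rescue or toxicity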
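Fission yeast RE007 carrying one integrated HIV-1 vpr copy, seeded at OD 0.01 in PMG+AL medium with 23 nL pinned compound. Grown 24 h at 30 degrees; viability read by BacTiter-Glo luminescence after 5 min.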
NS1 function inh – influenza NS1 inhibition; S. cerevisiae slowed by influenza A NS1, growth recovery by OD600; Potency, µM (titrated, usually from 46.1 µM), inactives show at the top dose activity, positive = more growth; actives 0.4% (n = 270,000); note: actives are rising curves; nearly all actives have a fitted effect of over 50% in size
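Growth recovery, yeast-based: influenza A NS1 expressed in S. cerevisiae causes slow growth, and suppressors are detected by OD600. The parent strain without NS1 is used as positive control.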
* hit, by the source's call; ? = inconclusive; / = not tested or not shown; & = joins results of further samples; [ ] = dose if it differs, or a comment. Unless noted, calls come from the whole dose curve; as a rule, active means well fitted rising curve with a large enough effect; inconclusive means small, poorly fitted or top-dose-only effect; inactive means no such curve, though single readings can be large or run the other way. Potency is the fitted concentration of half-maximal effect.

(1) O=[N+]([O-])c1ccc2c(c1)CCN2
(2) Cc1c([N+](=O)[O-])cc(C(=O)Oc2cccc(C(=S)N3CCOCC3)c2)cc1[N+](=O)[O-]
(3) O=C1NC2=C(C(=O)CCC2)C(c2ccccc2[N+](=O)[O-])N1 (stereo unspecified)
(4) COc1ccnc(NCc2ccc(Cl)cc2)c1C#N
(5) N#C/C(=C\c1ccc(Cl)cc1Cl)c1n[nH]c(Cn2cncn2)n1
(6) O=C(NCCc1ccc(Cl)cc1)C(=O)c1c[nH]c2ccccc12
(7) CCCc1oc(C(=O)O)cc1CN1CCOCC1
(8) Cc1ccccc1/C=N/Nc1nc2ccccc2c(=O)n1O
(9) COc1ccc(OCCn2c(C)nc3cc(C)c(C)cc32)cc1
(10) CCN(CC)S(=O)(=O)c1cccc(NC(=O)CNc2cccc(S(=O)(=O)N3CCOCC3)c2)c1

entry no.	1	2	3	4	5	6	7	8	9	10
Cruzain noTriton	/	/	/	-1%	8%	/	11%	/	-15%	/
Marburg entry inh	5%	1%	15%[46.1 µM]	3%	-8%	?	20%	?	5%[46.1 µM]	?
Lassa entry inh	4%	3%	22%	-5%	7%	?	-1%	-22%[46.1 µM]	9%[46.1 µM]	?
StopGo reporter	5%	0%	-5%	/	-12%	1%	/	10%	-20%	?
SARS PLpro yeast	/	-1%	1%	8%	-2%	-1%	15%	9%	/	2%
Cruzain inh Det	/	/	/	0.8%	0.5%	/	5.4%	/	-6.4%	/
RE007 growth inh	6%	-7%	-2%	3%	2%	5%	-10%	6%	/	-6%
NS1 function inh	/	3%	4%	-1%	10%	-2%	7%	-9%	/	/

(11) COCCn1cnnc1SCC(=O)Nc1cc(C)on1
(12) CNC(=O)[C@H](C)[C@@H]1C[C@@]1(C)[C@@H](NC(=O)OCc1ccccc1)c1ccccc1
(13) CC(OC(=O)CC(NC(=O)c1ccccc1Cl)c1ccccc1)C(=O)Nc1cccc(Cl)c1Cl (stereo unspecified)
(14) Cc1cccc(C(=O)N(Cc2ccc(C)o2)C2CCS(=O)(=O)C2)c1 (stereo unspecified)
(15) CCOc1ccc(CCNC(=O)c2c(C)oc3ncnc(N4CCOCC4)c23)cc1
(16) COCCn1c(=S)[nH]c2cc(C(=O)N3CC(C)CC(C)C3)ccc2c1=O (stereo unspecified)
(17) CCCOc1cc(C)c(S(=O)(=O)NC2CC(C)(C)NC(C)(C)C2)cc1C
(18) O=C1CC[C@@H](CN(Cc2ccccn2)Cc2nc(Cc3ccccc3)no2)N1
(19) CCN(C(=O)CSc1nc2ccccc2n1Cc1cc(C)ccc1C)c1ccccc1
(20) CCOc1ccc(S(=O)(=O)N2CCC(C(=O)N3CCN(c4ccccc4F)CC3)CC2)cc1C

entry no.	11	12	13	14	15	16	17	18	19	20
Cruzain noTriton	/	7%&20%	5%	/	-5%	/	-5%	/	9%	/
Marburg entry inh	-5%	-18%	-43%	-4%	/	?	?	1%[46.1 µM]	/	?
Lassa entry inh	-6%	?	-15%	-2%	?	2%[46.1 µM]	?	-19%	26%[46.1 µM]	7.1µM*
StopGo reporter	-1%	3%	-30%	-15%	-8%	?	-8%	-9%	-25%	-1%
SARS PLpro yeast	6%	-8%	10%	1%	/	0%	7%	0%	/	-3%
Cruzain inh Det	/	-2.1%&1.9%	-5.1%	/	-1.3%	/	0.0%	/	-0.7%	/
RE007 growth inh	3%	11%	-1%	-5%	/	-27%	14%	1%	/	1%
NS1 function inh	/	-2%	26%	2%	/	17%	-9%	-4%	/	21%

(21) CCOC(=O)Cn1c(=NC(=O)CC)sc2c(C)cc(C)cc21
(22) CCc1ccc(-n2nc3cc(C)c(NC(=O)c4ccccc4C)cc3n2)cc1
(23) C#CCOC(=O)c1ccccc1C(=O)N(CC)CC
(24) O=C(O)C(Cc1c[nH]c2ccccc12)NS(=O)(=O)c1ccc(Cl)cc1 (stereo unspecified)
(25) O=C(Nc1cccc(Cl)c1)c1cnc2sc(N3CCCC3)nn2c1=O
(26) CCOC(=O)C1(CCOC)CCN(CC(C)Cc2ccc3c(c2)OCO3)CC1 (stereo unspecified)
(27) CCCn1c(=O)c2[nH]cnc2n(-c2ccc(Cl)cc2)c1=O
(28) CC(C)(C)C(=O)Nc1ccc(C(=O)N/N=C/c2ccccc2OC(=O)c2ccc(Cl)cc2)cc1
(29) CCC1=Nc2cc(C(=O)NCCN(CC)CC)ccc2Sc2ccccc21
(30) O=C(COc1ccccc1)NCC(=O)Nc1cccc(S(=O)(=O)NC2=NCCC2)c1

entry no.	21	22	23	24	25	26	27	28	29	30
Cruzain noTriton	/	-5%	7%	/	9%	/	/	-15%	-9%	/
Marburg entry inh	-3%[46.1 µM]	?	7%	18%[46.1 µM]	/	?	?	?	?	?
Lassa entry inh	-8%	26%[46.1 µM]	22%	/	-9%[46.1 µM]	-6%[46.1 µM]	-4%	?	?	2%[46.1 µM]
StopGo reporter	25%	?	20%	-13%	?	-11%	3%	-2%	-17%	5%
SARS PLpro yeast	2%	/	8%	-5%	/	-1%	1%	5%	/	2%
Cruzain inh Det	/	0.9%	5.8%	/	-1.8%	/	/	0.0%	-1.8%	/
RE007 growth inh	42%	/	-3%	8%	/	9%	10%	9%	/	5%
NS1 function inh	5%	/	-2%	/	/	-18%	1%	10µM*	/	/

(31) Cc1cccc(N)c1-c1c(C)cccc1N
(32) O=C(OCc1nc(-c2ccccc2Cl)no1)c1ccco1
(33) COc1ccc(S(=O)(=O)NNC(=O)C2CC(c3cccnc3)=NO2)cc1 (stereo unspecified)
(34) COC(=O)CN(c1ccc(C)cc1)S(=O)(=O)c1ccc2c(c1)n(C)c(=O)c(=O)n2C
(35) O=C(Cc1ccc(Cl)cc1Cl)NC1CCCCCC1
(36) N#C/C(=C(/O)CO/N=C/c1ccccc1Cl)c1nc2ccccc2[nH]1
(37) O=C(CN1CCN(S(=O)(=O)c2ccc(Cl)cc2)CC1)Nc1ccc2c(c1)OCO2
(38) O=C1N=C(N2CCCC2)S/C1=C\c1ccccc1
(39) Cc1ccc(C(C(=O)NC(C)(C)C)N(C(=O)c2csnn2)c2cccc(F)c2)o1 (stereo unspecified)
(40) Cc1ccc(C)c(S(=O)(=O)Nc2cc3c4c(c2)CCN4C(=O)CC3)c1

entry no.	31	32	33	34	35	36	37	38	39	40
Cruzain noTriton	/	/	/	-8%	/	/	9%	-14%	1%	/
Marburg entry inh	-11%[46.1 µM]	6%	2%[46.1 µM]	-3%	?	/	-29%	?	3%&3%	-15%
Lassa entry inh	7%[46.1 µM]	-3%	18%	0%	14%[46.1 µM]	/	5%	-4%	34%	-1%
StopGo reporter	7%	25%	2%	-9%	-14%	-5%	0%	24%	7%	51%[activator]
SARS PLpro yeast	0%	2%	-1%	5%	0%	-2%	-15%	-7%	3%	-4%
Cruzain inh Det	/	/	/	2.1%	/	/	-6.2%	-7.8%	0.4%	/
RE007 growth inh	-8%	-30%	15%	16%	24%	7%	-2%	-11%	2%	-10%
NS1 function inh	1%	/	/	6%	-5%	1%	-31%	-5%	-5%	/

Shown with values under each structure: part of the list above
Results follow in this order: Cruzain noTriton, Marburg entry inh, Lassa entry inh, StopGo reporter, SARS PLpro yeast, Cruzain inh Det, RE007 growth inh, NS1 function inh
31	Cc1cccc(N)c1-c1c(C)cccc1N
  /, -11%[46.1 µM], 7%[46.1 µM], 7%, 0%, /, -8%, 1%
32	O=C(OCc1nc(-c2ccccc2Cl)no1)c1ccco1
  /, 6%, -3%, 25%, 2%, /, -30%, /
33	COc1ccc(S(=O)(=O)NNC(=O)C2CC(c3cccnc3)=NO2)cc1 (stereo unspecified)
  /, 2%[46.1 µM], 18%, 2%, -1%, /, 15%, /

Following part
(41) COc1ccc([C@@H]2C[C@H](c3ccccc3)Oc3cc(OC)c(OC)c(OC)c32)cc1
(42) COc1ccc(NC(=O)c2ccc3c(c2)CCN3S(=O)(=O)c2ccc(C)cc2)cc1Cl
(43) Cc1ccc(C(=O)NCCC(=O)NCc2cc(=O)n(C)c(=O)n2C)cc1
(44) OCC1(Cc2ccc(Cl)cc2)CCN(Cc2ccc(Oc3ncccn3)cc2)CC1
(45) CC1CCN(c2cc(N3CCOCC3)c(F)cc2[N+](=O)[O-])CC1
(46) CC1CCCC(C)N1C(=O)COC(=O)C(Cc1ccccc1)NC(=O)c1cccs1 (stereo unspecified)
(47) N#C/C(=C\c1ccc(Cl)c([N+](=O)[O-])c1)c1ccccn1
(48) Oc1cccc(/C=N/N(Cc2ccccc2)c2ccccc2)c1
(49) CC(C)CCNC(=O)NC(=O)CSc1nnc2ccccn12
(50) COc1ccc(CNC(=O)c2nn(-c3ccccc3)cc2OC)cc1
(51) CCN=C1SCC(=O)N1c1ccc(OC)cc1
(52) COC(=O)Cc1ccc(NC(=S)NCCCO)cc1

entry no.	41	42	43	44	45	46	47	48	49	50	51	52
Cruzain noTriton	/	7.9µM*	/	/	-9%	-4%	/	/	-11%	/	-13%	-12%
Marburg entry inh	/	-26%[46.1 µM]	/	?	?	/	?	-7%[46.1 µM]	-7%	-2%[46.1 µM]	1%	6%
Lassa entry inh	/	1%[46.1 µM]	/	-18%[46.1 µM]	-5%	/	/	?	?	?	5%	-2%
StopGo reporter	-27%	0%	-16%	-11%	-14%	9%	2%	?	/	-5%	15%	8%
SARS PLpro yeast	-1%	/	-1%	-1%	-1%	28%	-2%	0%	11%	-3%	-1%	2%
Cruzain inh Det	/	1.1%	/	/	-1.9%	-3.5%	/	/	0.6%	/	-2.1%	5.2%
RE007 growth inh	3%	/	9%	-25%	-9%	-3%	-10%	?	3%	-6%	11%	28%
NS1 function inh	1%	/	2%	2%	-17%	-4%	0%	/	4.5µM*	-24%	9%	6%

Source: PubChem (National Center for Advancing Translational Sciences (NCATS))

This is a random part of the collection. Share with any hit: about 4.7%.
